From PubChem BioAssay
AID923 – qHTS Assay for Allosteric/Competitive Inhibitors of Caspase-1: Spectroscopic Profiling in AFC Spectral Region; compound fluorescence, AFC spectral region (405/520 nm); almost no hit is shown here; Potency, µM (doses to about 57.5 µM), inactives show at the top dose fluorescence increase, hits mostly activators; 75,000 tested, 1.1% active; active = well fitted activation curve with a large enough effect; inconclusive = small, poorly fitted or top-dose-only effect;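 note: potency is the fitted concentration of half-maximal effect; 0% is about no effect; scaled to a free AFC standard on each plate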
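Compound autofluorescence profiled at 405 nm ex/520 nm em during kinetic caspase 1 run (50 nM enzyme, 5 uM Ac-WEHD-AFC, HEPES pH 7.5, 10 mM DTT). Titration up to 57 uM; baseline from regression intercept, normalized to AFC standard curve.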
TSHR ag – agonists of human thyroid stimulating hormone receptor; P16473; HEK293-CNG-TSHR cells (CNG channel as cAMP sensor), membrane potential dye, cAMP; Potency, µM (doses to about 57.1 µM), without a hit: top-dose activation, most hits filed as activators; 73,000 tested, 0.48% active; AID 926; active = well fitted activation curve of enough size with the parental cells flat; inconclusive = any curve in the parental cells; inactive = parental cells flat and receptor cells flat or falling; note: potency is the fitted concentration of half-maximal effect; % of control where 0% means no effect; weak receptor curves with flat parental cells got no call and are not listed
Target sequence (P16473 whole entry, looked up): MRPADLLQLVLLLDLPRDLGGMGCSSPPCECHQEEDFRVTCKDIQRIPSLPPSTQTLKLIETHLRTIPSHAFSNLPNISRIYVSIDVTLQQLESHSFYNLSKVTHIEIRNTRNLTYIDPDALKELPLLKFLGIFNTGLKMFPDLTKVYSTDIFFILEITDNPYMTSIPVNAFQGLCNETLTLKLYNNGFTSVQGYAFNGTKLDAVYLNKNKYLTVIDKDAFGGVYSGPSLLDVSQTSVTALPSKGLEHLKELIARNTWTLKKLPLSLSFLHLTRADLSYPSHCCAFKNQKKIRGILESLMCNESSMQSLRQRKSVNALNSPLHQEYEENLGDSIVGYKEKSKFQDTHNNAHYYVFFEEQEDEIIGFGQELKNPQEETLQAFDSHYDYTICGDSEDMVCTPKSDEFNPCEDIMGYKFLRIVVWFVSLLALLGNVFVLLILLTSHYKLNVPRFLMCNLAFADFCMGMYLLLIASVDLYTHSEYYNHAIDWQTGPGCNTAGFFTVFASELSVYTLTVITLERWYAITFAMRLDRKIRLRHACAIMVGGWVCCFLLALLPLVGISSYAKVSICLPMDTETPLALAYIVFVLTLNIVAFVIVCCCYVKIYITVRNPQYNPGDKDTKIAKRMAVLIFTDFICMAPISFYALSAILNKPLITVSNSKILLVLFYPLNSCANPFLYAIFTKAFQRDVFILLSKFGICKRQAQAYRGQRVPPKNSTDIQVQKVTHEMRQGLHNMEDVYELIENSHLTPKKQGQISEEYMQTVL
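cAMP rise detected as CNG-channel membrane depolarization by fluorescent dye (emission 590 nm), 30 min after compound, following 60 min dye loading containing 100 uM RO 20-1724 at room temperature. Cells: TSHR/CNG HEK 293, with parental CNG HEK 293 as control.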
Resorufin fluor – resorufin region autofluorescence | Compound fluorescence, resorufin region 547/598 nm, buffer; hits give high values | max dye-equivalent concentration, M | 59,000 tested, 0.04% active | AID 588; active = above 10 nM dye equivalent; inconclusive = 1 to 10 nM; inactive = 1 nM or less; a few of its hits are not listed in these tables; note: highest value over a series up to 38 µM
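Compounds in 100 mM Tris buffer, pH 8.0, incubated 15 min at room temperature, then read with 547 nm excitation and 598 nm emission filters. Fluorescence was converted to dye-equivalent concentration using an on-plate six-point resorufin standard curve.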
A647 fluor – A647 region autofluorescence; max dye-equivalent concentration, M; 59,000 tested, under 10 active; AID 592; Compound fluorescence, A647 channel (570/671 nm), Tris buffer; active means above 1 µM dye equivalent; inconclusive means 0.1 to 1 µM; inactive means 0.1 µM or less;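 note: values scaled relative to a standard on each plate; highest value over a series up to 38 µM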
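Each compound's intrinsic fluorescence at 570 nm excitation and 671 nm emission is measured across its concentration series in 100 mM Tris, pH 8.0, after 15 min at room temperature, and reported relative to an A647 curve.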
A488 autofl – A488 region autofluorescence; compound autofluorescence, A488 spectral region, dye equivalency; hits give high values; max dye equivalency, M; 59,000 tested, 0.1% active; AID 591; active = above 10 nM dye equivalent; inconclusive = 1 to 10 nM; inactive = 1 nM or less; about half of its hits are not listed in these tables;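 note: highest value over a series up to 38 µM; compound alone in buffer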
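Autofluorescence read at ex 480/em 540 nm after 15 min RT in 100 mM Tris pH 8.0; compound signal normalized to A488 standard series on each plate, reported as dye-equivalent concentration at each test concentration.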
An asterisk follows results filed as active; i = inactive; ? = inconclusive; · = not tested or not shown; [ ] = dose if it differs, or a comment.

Structure	AID923	A488 autofl	TSHR ag	A647 fluor	Resorufin fluor
Cc1ccccc1-n1nc2c(c1NC(=O)c1c(-c3ccccc3Cl)noc1C)CS(=O)(=O)C2	-1.6%	i	26%	1e-09	i
O=C(CCCCn1c(=O)[nH]c2ccccc2c1=O)NC1CCN(Cc2ccccc2)CC1	1.3%	·	3%	·	·
O=c1[nH]cc(CS(=O)(=O)Cc2c[nH]c(=O)[nH]c2=O)c(=O)[nH]1	2.2%[11.5 µM]	i	-2%[11.4 µM]	3.6e-09	i
O=C(CSc1nnc(-c2ccc(Cl)s2)o1)N1CCCc2ccccc21	1.0%	i	?	1e-09	i
O=c1c(-c2ccco2)[n+]([O-])c2ccccc2n1OCc1ccccn1	4.7%	i	-3%	6.4e-09	i
N#Cc1ccc(OC(=O)c2ccc(N=C(N)N)cc2)cc1	-0.2%[11.5 µM]	i	2%[11.4 µM]	1.8e-09	i
CC(C)OCCCNC(=O)CN1CCN(Cc2ccccc2Cl)C1=O	0.3%	i	?	1e-09	i
CCc1cccc2c1NC(=O)[C@]21[C@@H]2C(=O)N(Cc3ccccc3)C(=O)[C@@H]2[C@@H]2CCCN21	4.0%	i	-12%	2.2e-08	i
CCN=C(N)CSS(=O)(=O)O	1.5%[11.5 µM]	i	-1%[11.4 µM]	2.2e-09	i
COc1ccc(Oc2ncc3nc(C)c(=O)n(C)c3n2)cc1	2.9%	i	3%	1e-09	i
Cc1oc(-c2ccc(F)cc2)cc1-c1nn2c(-c3ccco3)nnc2s1	-4.3%	i	?	1.7e-08	i
O=C(NCCOC(=O)c1cccs1)c1cccnc1	-0.1%	i	-1%	3.8e-08	i
O=C(CCCn1c(=S)[nH]c2cc3c(cc2c1=O)OCO3)N1CCc2ccccc2C1	-0.6%	i	25%	8e-09	i
CCCCc1cc(=O)oc2cc(OCC(=O)N(CC)CC)ccc12	-1.9%	·	25%	·	·
COc1cccc(-c2cncnc2-n2ccnc2)c1	-1.5%	i	2%	1e-09	i
O=C(O)c1ccc(N[C@H](c2ccccc2)c2ccc3cccnc3c2O)cc1	-0.8%[11.5 µM]	i	-1%[11.4 µM]	4.8e-08	i
COc1ccc(CN(CC(=O)NC2CCCC2)C(=O)c2onc(C(N)=O)c2N)cc1	0.5%	i	-2%	1.2e-08	i
COc1ccc(N2CCN(C(=O)C3CCC(Cn4c(=S)[nH]c5ccccc5c4=O)CC3)CC2)cc1 (stereo not drawn)	-0.9%	i	-2%	1e-09	i
CCC(=O)N1CCCc2cc(S(=O)(=O)N3CCN(c4ncccn4)CC3)ccc21	3.1%	·	4%	·	·
O=C(CCCC(=O)NCC1CCCO1)NCC1CCCO1 (stereo not drawn)	1.0%	·	5%	·	·

Profiles as entered above. Values in the order: AID923, A488 autofl, TSHR ag, A647 fluor, Resorufin fluor
Cc1ccccc1-n1nc2c(c1NC(=O)c1c(-c3ccccc3Cl)noc1C)CS(=O)(=O)C2 is listed as -1.6%, i, 26%, 1e-09, i
O=C(CCCC(=O)NCC1CCCO1)NCC1CCCO1 (stereo not drawn) is listed as 1.0%, ·, 5%, ·, ·

Next part.
Structure	AID923	A488 autofl	TSHR ag	A647 fluor	Resorufin fluor
COC(=O)c1cc(OC)c(OC)cc1NC(=O)CSc1nnc(-c2cccnc2)n1C	-0.3%	i	0%	1.4e-08	i
CCCC(=O)c1cn(CC(=O)OC)c2ccccc12	-1.7%	i	-4%	3.2e-09	i
O=C(COc1ncnc2ccccc12)NCc1ccc2c(c1)OCO2	-3.6%	i	6%	1.3e-09	i
CCNC(=O)CN(CCc1ccccc1)S(C)(=O)=O	0.9%	i	-1%	3.9e-08	i
CCC(=O)Nc1cccc(NC(=O)CSc2nnnn2Cc2ccccc2)c1	-1.0%	i	3%	2.2e-08	i
Cc1nc(NC2CCCCC2)c2nc(-c3ccccc3)n(CCCN3CCCCC3C)c2n1 (stereo not drawn)	0.2%	·	?	·	·
O=C(c1ccco1)N1CCN=C1SCc1ccccc1Cl	-1.8%	·	?	·	·
CC(C)(C)c1ccc(NC(=O)NCc2ccco2)cc1	1.8%	·	4µM*	·	·
CCc1nnc(NC(=O)CSc2nnc(-c3ccccc3O)n2-c2ccc(C)cc2C)s1	-0.4%	i	?	2.8e-08	i
COC(=O)C/C=C/C(C)C(OC)c1ccccc1Br (stereo not drawn)	0.6%[11.5 µM]	·	9%[11.4 µM]	·	·
COc1ccc(-n2c(C)cc(C(=O)Cn3nnc4ccccc4c3=O)c2C)cc1	0.0%	i	24%	3.6e-09	i
CCN(CC)S(=O)(=O)c1ccc(NC(=O)c2cccc3c2C(=O)N(CCOC)C3)cc1	-0.4%	i	11%	2.7e-08	i
O=C(c1cncc(Br)c1)N1CCCc2ccccc21	·	i	·	1e-09	i
Cn1c(Cc2ccccc2)nnc1SCC(=O)Nc1ccc2c(c1)OCCO2	-3.0%	i	1%	4.8e-08	i
Cc1cccc(C)c1NC(=O)CSc1nnc(Cn2nnc(-c3ccccc3)n2)n1-c1ccccc1	1.5%	i	?	4e-09	i
CCOC(=O)N1CCC(N2C(=O)c3ccccc3C2=O)CC1	2.0%	·	10%	·	·
CC(C)C(=O)Nc1ccc(NC(=O)c2cccc(F)c2)cn1	0.5%	i	-5%	3.8e-08	i
CCOCCc1c(O)nc(SCC(=O)NCc2ccco2)[nH]c1=O	0.0%	i	2%	2.3e-08	i
COCC(=O)Nc1cc(OC)c(Cl)cc1OC	-2.1%	i	6%	3.3e-08	i
COc1ccc(NC(=O)N2CC3(CCN(C(=O)c4cccc(F)c4)CC3)C2)cc1	-2.1%	i	1%	1e-09	i
Cc1ccc(-c2ccc(CCC(=O)O)n2NC(=O)c2ccco2)cc1	-0.4%	i	5%	2.2e-08	i
Cc1cc(C(=O)Cn2cncn2)c(C)n1CCc1ccc(F)cc1	0.9%	i	11%	1.3e-08	i
CCCCNC(=O)CCCCCn1c(=O)[nH]c2cc(OC)c(OC)cc2c1=O	1.3%	i	9%	1e-09	i
COc1ccc(CCNC(=O)CN2CCC(C(N)=O)CC2)cc1	-0.2%	i	1%	1e-09	i
CCCCCCCC1=CC2=CC(=O)C(C)(OC(C)=O)C(=O)C2=CN1CCc1ccccc1 (stereo not drawn)	-1.5%[11.5 µM]	·	-3%[11.4 µM]	·	·
O=C(O)c1cc(S(=O)(=O)N2CCOCC2)c(Sc2ccccn2)cc1Sc1ccccn1	-2.0%	·	3%	·	·
CC1CCN(c2nc3c(c(=O)[nH]c(=O)n3C)n2Cc2ccccc2)CC1	-4.0%	·	?	·	·
CCC(C)NS(=O)(=O)c1ccc(OCC(=O)NCc2cccnc2)cc1 (stereo not drawn)	1.7%	i	-1%	1e-09	i
CCCC[C@@H]1C[C@H]1C(NC(=O)c1ccccc1)c1ccc(C(=O)OC)cc1 (stereo partly drawn)	0.8%	·	?	·	·
CC(C)CN1CCC2(CC1)CCN(S(=O)(=O)c1ccccc1)CC2	4.0%	i	5%	1.6e-09	i
OC1(c2ccc3c(c2)OCO3)CCN(Cc2ccccn2)CC1	0.1%	i	5%	2.1e-09	i
COc1cccc(CN2C(=O)CN(C3CCCCC3)C(=O)C2c2ccc(F)cc2)c1 (stereo not drawn)	-1.2%	i	13µM*	5.6e-09	i
Cc1ccc(C(=O)Nc2ccccc2NC(=O)c2ccc(C)o2)o1	-0.3%	·	16%	·	·
COc1ccc(C(=O)c2ccc(OC)cc2O)c(O)c1	-0.6%	i	8%	1e-09	i
CCOC(=O)CSc1nc2c([nH]c3ccccc32)c(=O)n1C	0.1%	i	1%[11.4 µM]	1e-09	i
N#Cc1ccccc1NC1=CC(=O)CCC1	0.2%	·	3%	·	·
CCC(=O)Nc1ccc2c(c1)C(=O)N(C1CCCCC1)C2=O	-0.6%	i	-9%	9e-09	i
CCc1cc(=O)oc2cc(C)c(CN3CCCCC3)c(O)c12	·	i	·	1e-09	i
O=C1Nc2ccccc2C1=Nc1cccc2ncccc12	0.8%[11.5 µM]	i	0%[11.4 µM]	1e-09	i
CCOc1ccc2nc(SCC(=O)NC3CCS(=O)(=O)C3)[nH]c2c1 (stereo not drawn)	-0.6%	i	3%	1.3e-08	i
O=C1c2ccccc2N[C@H](c2cc(Cl)cc(Cl)c2O)N1CCc1ccccn1	-3.1%[11.5 µM]	i	6%[11.4 µM]	1.2e-08	i
COc1ccc(C(=O)N2CCC3(CCN(CC(C)C)CC3)CC2)cc1	2.8%	i	3%	1e-09	i
CN(C)c1ccc(C2C3C(=O)N(c4ccc(C(=O)O)cc4)C(=O)C3ON2c2ccccc2)cc1 (stereo not drawn)	·	i	·	1e-09	i
c1ccc2c(c1)CCCN2Cc1nnc2n1CCCCC2	2.9%	i	?	3.3e-09	i
CC(C)NC(=O)CSc1nc2ccccc2n1CC(=O)N1CCc2ccccc21	-1.1%	i	6%	2.3e-08	i
CC1CCN(c2oc(-c3ccccc3Cl)nc2C#N)CC1	·	i	·	1e-09	i
O=C(Nc1ccccc1C(=O)N1CCOCC1)c1noc2c1CCCC2	1.6%	i	-4%	1.2e-08	i
Cc1ccc2c(c1)C(N1CCCC1=O)CC(c1ccco1)N2 (stereo not drawn)	0.5%	i	4%	1e-09	i
CCCc1nc(SCC(=O)N2CCN(c3ccccc3)CC2)c2c(=O)n(C)c(=O)n(C)c2n1	-0.4%	·	7%	·	·
CCOC(=O)Nc1cccc2ccccc12	-1.1%	i	4%	1e-09	i

The list continues.
Structure	AID923	A488 autofl	TSHR ag	A647 fluor	Resorufin fluor
COc1ccc(-c2noc(N3CCC(C(=O)N4CCN(c5ccccn5)CC4)CC3)n2)cc1	-0.1%	i	27%	2.2e-08	i
COc1ccc(/C(O)=C2/C(=O)C(=O)N(CCCN(C)C)C2c2cccnc2)cc1 (stereo not drawn)	0.3%	i	-5%	2.7e-08	i
COc1ccc(NC(=O)N(CCCN2CCOCC2)Cc2cccnc2)c(OC)c1	3.3%	·	-1%	·	·
CC(C)OCCCn1c(=S)[nH]c2cc3c(cc2c1=O)OCO3	-0.5%	i	·	2.1e-09	i
Cc1ccc(S(=O)(=O)CNC(=O)c2ccccc2)cc1	0.7%	·	-8%	·	·
CCCCn1c(SCC(=O)c2ccc3c(c2)OCCO3)nnc1-c1ccco1	-2.7%	i	?	1e-09	i
Nn1c(SCC(=O)Nc2ccc3c(c2)OCO3)nnc1-c1ccncc1	-3.2%	i	-5%	8.5e-09	i
O=C(NC1CCCCC1)N1CCCC(c2nc(-c3ccc(S(=O)(=O)N4CCCC4)cc3)no2)C1 (stereo not drawn)	-0.7%	i	·	2e-08	i
O=S(=O)(Nc1ccc2c(c1)CCC2)c1cccs1	-0.4%	i	14%[11.4 µM]	7.7e-09	i
CCOC(=O)c1cnn(CC2CCCCC2)c1N	-0.5%	·	17%	·	·
Cc1c(C(=O)N2CCN(S(C)(=O)=O)CC2)oc2ccccc12	0.1%	i	11%	2.9e-08	i
CCCCNc1nc(C)nc2c1nc(-c1ccccc1)n2CCN(C)C	1.0%	·	?	·	·
Cc1ccccc1C(=O)Nc1cccc(-c2nnc(SCC(=O)O)n2C)c1	1.1%	i	3%	1.8e-08	i
COC(=O)c1ccc(CSc2nnnn2-c2ccccc2)o1	-3.4%	i	9%	1.8e-08	i
CCN1CCN(c2nc3c(c(=O)n(C)c(=O)n3C)n2CCSc2ncccn2)CC1	3.7%	i	-1%	4.1e-09	i
CN(C)Cc1ccccc1-c1ccc2ncnc(NCc3ccccc3)c2c1	-0.7%	i	10%	1e-09	i

The list is partial, so the mix of outcomes need not match the whole.
